Env fusion inh = HIV envelope-mediated fusion inhibition; AID 651610; HeLa-JRFL Env/CEM21 cell fusion, luciferase; inhibition, % at 12.3 µM; 360,000 compounds, 1.1% hits;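 active means mean replicate inhibition score of at least 50 and every replicate individually at or above 50; inconclusive means only one of the two criteria met; inactive means mean below 50 and not all replicates reaching 50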;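 further: 0% = plate neutral controls and 100% = maraviroc near 300 nM; one replicate is shown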
MT1-MMP act inh = blocks activation of human MT1-MMP; P50281; AID 651647; GFP/RFP ratio change, % at 20 µM; 360,000 compounds, 0.061% hits; HT1080 RFP-PRO-GFP cells, GFP/RFP ratio fluorescence, overnight; percent of plate control window, DMSO zero;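 active means GFP/RFP ratio change of at least 30% with cell ATP level not reduced by more than half and red fluorescence within 50% of control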; further: strong numbers were not always called active
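Assay system: RFP-PRO-GFP reporter HT1080 cells; read-out basis: GFP/RFP fluorescence ratio; benchmarks: DMSO wells and RFP-L50D-GFP cells; doses: 20 µM single dose, 1% DMSO; schedule: overnight cell settling, then overnight compound exposure, 37 °C, 5% CO2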
MT1-MMP act inh RFP = also measured in MT1-MMP act inh; calls as there; RFP signal change, %; measured here: RFP expression control read;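 0 = vehicle wells; hits needed this value within 50% of zero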
* marks the source's active call; other numbers are inactive results. The list is partial; the hit share may differ from the screen's.

Screening CC(c1nc2scc(-c3ccccc3)c2c(=O)[nH]1)N1CCN(CC(=O)NC2CC2)CC1 (configuration not stated) returned Env fusion inh -1.9, MT1-MMP act inh -1.1 and MT1-MMP act inh RFP 0.8.
`CC(C)C[C@H]1COc2cccc(N3CCC[C@@H]3CO)c2S(=O)(=O)N1` gave Env fusion inh -22.4, MT1-MMP act inh 2.2 and MT1-MMP act inh RFP 2.0.
For COc1cccc(CN(C)C(=O)c2cccc(S(=O)(=O)Nc3cccc(C)c3)c2)c1OC the results were Env fusion inh 17.2, MT1-MMP act inh 0.0 and MT1-MMP act inh RFP -5.6.
COC(=O)CCCn1cc(CN2CC(N3CCN(C4CCN(C)CC4)CC3)CS2(=O)=O)nn1 (configuration not stated) was read as Env fusion inh -10.2, MT1-MMP act inh 3.7 and MT1-MMP act inh RFP 7.1.
CCOC(=O)C1=NOC2(C1)C(=O)Nc1ccc(OC(F)(F)F)cc12 (configuration not stated) was read as Env fusion inh 9.6, MT1-MMP act inh 3.1 and MT1-MMP act inh RFP 6.6.
For COC(=O)c1ccccc1COc1cccn2c(N(C)C(=O)CCC3CCCC3)c(C)nc12 the results were Env fusion inh -26.1, MT1-MMP act inh -17.9 and MT1-MMP act inh RFP -20.9.
Screening COc1cccc(NC(=O)CN(C)C(=O)CC2CCCCC2)c1 returned Env fusion inh -16.4, MT1-MMP act inh -0.1 and MT1-MMP act inh RFP -1.7.
`O=C(C(=O)N1CCCN(Cc2ccc(F)cc2)CC1)c1ccccc1` gave Env fusion inh 9.8, MT1-MMP act inh 4.7 and MT1-MMP act inh RFP 1.6.
For O=C1OCCC1=Cc1ccccc1 the results were Env fusion inh -12.9, MT1-MMP act inh -0.4 and MT1-MMP act inh RFP 0.4.
`Cc1ccc(Cn2cc(CN3CC(N(C)C)CS3(=O)=O)nn2)cc1` (configuration not stated) gave Env fusion inh 1.0, MT1-MMP act inh 3.8 and MT1-MMP act inh RFP 6.5.
Screening Cn1c(N)nc(N)c(NC=O)c1=O returned Env fusion inh -20.4, MT1-MMP act inh 2.5 and MT1-MMP act inh RFP 4.9.
COc1ccc(-c2cc(C(=O)OCC(=O)N3CCCCC3)c3ccccc3n2)cc1OC was read as Env fusion inh 3.4, MT1-MMP act inh 4.9 and MT1-MMP act inh RFP -4.8.
COc1ccc(-c2c(Sc3ccccc3)c3cc(-c4ccc(OC)c(F)c4)ccc3n2C)cc1 was read as Env fusion inh 22.1, MT1-MMP act inh -6.6 and MT1-MMP act inh RFP -9.5.
CC1(c2nnnn2-c2ccc3c(c2)OCCO3)CCC(=O)N1CCCn1ccnc1 (configuration not stated) was read as Env fusion inh -13.7, MT1-MMP act inh 3.0 and MT1-MMP act inh RFP 6.4.
For COc1ccc(OC)c(S(=O)(=O)NC(=O)C2(C)CCN2C(=O)C2(c3ccc(Cl)cc3)CC2)c1 (configuration not stated) the results were Env fusion inh -26.5, MT1-MMP act inh -3.6 and MT1-MMP act inh RFP -0.5.
O=C(NN=Cc1cc(Cl)ccc1[N+](=O)[O-])c1ccco1 was read as Env fusion inh -18.7, MT1-MMP act inh 2.7 and MT1-MMP act inh RFP -4.6.
For CC(C)C[C@H]1CN(CCCC[C@H]2CNC(=O)C(=O)N2CCc2ccccc2)C(=O)C(=O)N1CCc1ccc(O)cc1 the results were Env fusion inh -18.5, MT1-MMP act inh -0.7 and MT1-MMP act inh RFP 1.8.
Nc1cc2[nH]c(=O)c3ccccc3c2cc1Br was read as Env fusion inh 9.8, MT1-MMP act inh 2.2 and MT1-MMP act inh RFP 2.7.
For CCCCCCCCN1C(=O)[C@H](CC(=O)NCc2cccc3ccccc23)C[C@@]2(C(=O)OCC)CCCC=C12 the results were Env fusion inh 75.8*, MT1-MMP act inh -2.8 and MT1-MMP act inh RFP -9.8.
COC(=O)[C@]12CCCCC=C1N(CCc1ccc(OC)c(OC)c1)C(=O)[C@H](CC(=O)NCc1cccc(C(F)(F)F)c1)C2 was read as Env fusion inh -21.0, MT1-MMP act inh -3.7 and MT1-MMP act inh RFP -9.2.
Cc1nc(NC(=O)C(C)(C)C)sc1C(=O)Cn1cc(CCCC#N)nn1 was read as Env fusion inh 15.4, MT1-MMP act inh 1.8 and MT1-MMP act inh RFP -0.5.
Screening CCC(C(=O)NC(C)(C)C)n1c(-c2ccc(C)cc2)nc2ccccc21 (configuration not stated) returned Env fusion inh -6.2, MT1-MMP act inh 1.3 and MT1-MMP act inh RFP 2.1.
For Cc1cccc(CN2CCN(C3CN(Cc4cn(Cc5ccc(F)cc5)nn4)S(=O)(=O)C3)CC2)c1 (configuration not stated) the results were Env fusion inh -12.0, MT1-MMP act inh 7.7 and MT1-MMP act inh RFP -2.2.
Screening COC(=O)/C=C1\OCc2cc(OC)c(OC)cc21 returned Env fusion inh -26.0, MT1-MMP act inh 3.2 and MT1-MMP act inh RFP 5.8.
For CCOC(=O)N(O)c1ccc(C=Cc2ccccc2)cc1 the results were Env fusion inh -37.9, MT1-MMP act inh -2.1 and MT1-MMP act inh RFP -14.4.
For OC(c1cc(Cl)cc(Cl)c1)c1ncc(-c2cccc(F)c2)[nH]1 (configuration not stated) the results were Env fusion inh -2.0, MT1-MMP act inh 7.8 and MT1-MMP act inh RFP -4.2.
Screening CC(=O)C[C@@H]1OC2CCCCC2N1S(=O)(=O)c1ccc(C)cc1 (some centres not stated) returned Env fusion inh -3.6, MT1-MMP act inh -1.8 and MT1-MMP act inh RFP 4.8.
For CCN(CC(=O)Nc1ccc(NC(C)=O)cc1)C(=O)c1cn(-c2ccccc2)nc1-c1cccs1 the results were Env fusion inh -69.2, MT1-MMP act inh -3.8 and MT1-MMP act inh RFP -2.5.
`O=C1NC[C@H](CCCCN2C[C@H](Cc3ccccc3)N(CCc3ccc(O)cc3)C(=O)C2=O)N(CC2CCCCC2)C1=O` gave Env fusion inh 5.4, MT1-MMP act inh 3.4 and MT1-MMP act inh RFP 6.7.
Screening CCOC(=O)[C@]12CCC=C1N(Cc1cccc3ccccc13)C(=O)[C@H](CC(=O)NCC13CC4CC(CC(C4)C1)C3)C2 returned Env fusion inh -62.2, MT1-MMP act inh -4.8 and MT1-MMP act inh RFP -9.1.
`O=C(c1ccco1)N1CCN(C(=O)c2cccn3c(=O)c4c5c(sc4nc23)CCCC5)CC1` gave Env fusion inh 8.5, MT1-MMP act inh -4.8 and MT1-MMP act inh RFP -1.6.
`Cc1cccc(C)c1-n1nnnc1C1(C)CCC(=O)N1CCOc1ccccc1` (configuration not stated) gave Env fusion inh -15.9, MT1-MMP act inh 6.2 and MT1-MMP act inh RFP 3.3.
For COC(=O)c1ccc(CCc2cc(O)c(Br)cc2O)cc1 the results were Env fusion inh -68.7, MT1-MMP act inh 1.2 and MT1-MMP act inh RFP -12.7.
CC(C)CN1C(=O)CSCC1(C)C(=O)NC(C)C (configuration not stated) was read as Env fusion inh 17.8, MT1-MMP act inh 7.5 and MT1-MMP act inh RFP 7.2.
For O=C(Cc1c(F)cccc1Cl)Nc1cc(S(=O)(=O)N2CCOCC2)ccc1N1CCOCC1 the results were Env fusion inh -1.9, MT1-MMP act inh -1.3 and MT1-MMP act inh RFP -2.0.
For COCCNC(=O)C1(C)CCCN(CCSc2ccccc2)C1 (configuration not stated) the results were Env fusion inh -1.6, MT1-MMP act inh 1.6 and MT1-MMP act inh RFP -2.5.
Screening Cc1ccc(S(=O)(=O)N2CCC(=O)N([C@H](COCc3ccc(Cl)cc3)C(C)C)CC2)cc1 returned Env fusion inh 41.3, MT1-MMP act inh -3.6 and MT1-MMP act inh RFP -22.1.
`Cc1ccnn1-c1ccc(C(=O)NCc2ccccc2CN2CCOCC2)cc1` gave Env fusion inh 15.3, MT1-MMP act inh 0.5 and MT1-MMP act inh RFP -1.2.
COc1ccccc1OCCn1nc2ccccc2c1OC was read as Env fusion inh -9.1, MT1-MMP act inh 14.0 and MT1-MMP act inh RFP 7.8.
Screening CC(C)(C)NC(=O)C(c1cc2ccccc2o1)n1c(-c2ccc(-c3ccccc3)cc2)nc2ccccc21 (configuration not stated) returned Env fusion inh -179.5, MT1-MMP act inh -11.6 and MT1-MMP act inh RFP -17.3.
Screening CCC(c1nnnn1-c1ccc2c(c1)OCCO2)N1CCN(c2ccc(C)cc2)CC1 (configuration not stated) returned Env fusion inh 10.8, MT1-MMP act inh -1.4 and MT1-MMP act inh RFP -15.1.
Screening O=C(CC(CC(=O)c1ccccc1)c1ccco1)c1ccccc1 returned Env fusion inh -2.4, MT1-MMP act inh 5.8 and MT1-MMP act inh RFP -7.0.
COc1ccc(CCN2C(=O)COc3ccccc3C2C(=O)Nc2c(C)cccc2C)cc1OC (configuration not stated) was read as Env fusion inh -20.4, MT1-MMP act inh 3.4 and MT1-MMP act inh RFP 5.5.
For O=C1NC[C@@H](CCCCN2CCN(Cc3ccccc3)C(=O)C2=O)N(CCC2CCCCC2)C1=O the results were Env fusion inh -42.9, MT1-MMP act inh 2.5 and MT1-MMP act inh RFP 6.1.
O=C(NC1CCCCC1c1ccccc1)c1ccccc1 (configuration not stated) was read as Env fusion inh -20.7, MT1-MMP act inh -1.0 and MT1-MMP act inh RFP 0.9.
For COc1ccc(C2=Nc3ccccc3N(C(=O)c3cccnc3)C2C(=O)NC(C)(C)C)cc1 (configuration not stated) the results were Env fusion inh -13.1, MT1-MMP act inh -1.1 and MT1-MMP act inh RFP 2.2.
O=[N+]([O-])c1ccc(Oc2cccnc2)c([N+](=O)[O-])c1 was read as Env fusion inh -82.3, MT1-MMP act inh 4.1 and MT1-MMP act inh RFP -3.9.
Screening CC1C2CCC(C2)C1OC(=O)c1ccccc1C(=O)O (configuration not stated) returned Env fusion inh 10.8, MT1-MMP act inh -2.0 and MT1-MMP act inh RFP 2.2.
COCCCNC(=O)C[C@@H]1C[C@@]2(C(=O)OC)CCCCC=C2N(Cc2ccco2)C1=O was read as Env fusion inh -4.7, MT1-MMP act inh 0.1 and MT1-MMP act inh RFP 5.8.
Screening N#Cc1ncn(C2OC(CO)C(O)C2O)c1N (configuration not stated) returned Env fusion inh -10.4, MT1-MMP act inh -1.0 and MT1-MMP act inh RFP 3.2.
For COc1ncc(-c2ccc(N3C(c4ccsc4)=Cc4ccc(F)cc4C3CC(=O)c3ccco3)cc2)cn1 (configuration not stated) the results were Env fusion inh inconclusive, MT1-MMP act inh -15.9 and MT1-MMP act inh RFP -12.8.
CC1CNC(=S)N(c2ccc(F)cc2)C1=O (configuration not stated) was read as Env fusion inh -65.1, MT1-MMP act inh -0.7 and MT1-MMP act inh RFP -2.5.
Cc1ccc(S(=O)(=O)N2C(c3ccc(Cl)c(Cl)c3)CC=C(C(=O)O)C2c2ccc(Cl)cc2)cc1 (configuration not stated) was read as Env fusion inh 8.5, MT1-MMP act inh -1.5 and MT1-MMP act inh RFP -6.7.
CC(C)NC(=O)C1C(c2ccc(C(F)(F)F)cc2)=Nc2ccccc2N1C(=O)c1ccco1 (configuration not stated) was read as Env fusion inh 0.2, MT1-MMP act inh 1.3 and MT1-MMP act inh RFP 2.7.
CCOC(=O)c1cc(-c2cccc(O)c2)oc1C was read as Env fusion inh -63.9, MT1-MMP act inh 0.8 and MT1-MMP act inh RFP -2.3.
Screening Cc1ccccc1-c1cc2nc(NCCOc3ccccc3Cl)n(C)c(=O)c2s1 returned Env fusion inh 18.7, MT1-MMP act inh -4.2 and MT1-MMP act inh RFP -2.4.
`C[C@@H](c1ccccc1)N1C[C@@H](COCc2ccccc2)Oc2cc(N3CCC[C@@H]3CO)ccc2S1(=O)=O` gave Env fusion inh -16.6, MT1-MMP act inh 6.1 and MT1-MMP act inh RFP 3.9.
Screening CC(=O)CC(=O)NC1CCc2ccccc21 (configuration not stated) returned Env fusion inh -7.2, MT1-MMP act inh 3.4 and MT1-MMP act inh RFP 4.3.
Screening COc1cc(C23CCCN(CCC(C(C)(C)C)C2)C32OCCO2)cc(OC)c1OC (configuration not stated) returned Env fusion inh 20.6, MT1-MMP act inh -2.1 and MT1-MMP act inh RFP -0.6.
`O=C1NC(=O)C(c2ccccc2)(c2ccccc2)N1S(=O)(=O)c1ccccc1` gave Env fusion inh -9.6, MT1-MMP act inh 2.3 and MT1-MMP act inh RFP -1.5.

Part of the list above in order of count of non-hydrogen atoms, lowest first.
Screening CC(=O)CC(=O)NC1CCc2ccccc21 (configuration not stated) returned Env fusion inh -7.2, MT1-MMP act inh 3.4 and MT1-MMP act inh RFP 4.3.
Screening Cc1ccccc1-c1cc2nc(NCCOc3ccccc3Cl)n(C)c(=O)c2s1 returned Env fusion inh 18.7, MT1-MMP act inh -4.2 and MT1-MMP act inh RFP -2.4.
COCCCNC(=O)C[C@@H]1C[C@@]2(C(=O)OC)CCCCC=C2N(Cc2ccco2)C1=O was read as Env fusion inh -4.7, MT1-MMP act inh 0.1 and MT1-MMP act inh RFP 5.8.
`C[C@@H](c1ccccc1)N1C[C@@H](COCc2ccccc2)Oc2cc(N3CCC[C@@H]3CO)ccc2S1(=O)=O` gave Env fusion inh -16.6, MT1-MMP act inh 6.1 and MT1-MMP act inh RFP 3.9.
For COc1ncc(-c2ccc(N3C(c4ccsc4)=Cc4ccc(F)cc4C3CC(=O)c3ccco3)cc2)cn1 (configuration not stated) the results were Env fusion inh inconclusive, MT1-MMP act inh -15.9 and MT1-MMP act inh RFP -12.8.
